Resorufin autofl = qHTS Assay for Spectroscopic Profiling in Resorufin Spectral Region. Compound fluorescence, resorufin region 547/598 nm, buffer; stronger effect = higher value. max dye-equivalent concentration, M. 59,000 tested, 0.04% active. AID 588, 2007; active = above 10 nM dye equivalent; inconclusive = 1 to 10 nM; inactive = 1 nM or less; a few of its hits are not listed in these tables; further: highest value over a series up to 38 µM
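Compounds in 100 mM Tris, pH 8.0, incubated 15 min at room temperature, then fluorescence read at 547 nm excitation/598 nm emission. Signal converted to dye-equivalent concentration via an on-plate six-point resorufin standard curve, per compound concentration.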
A488 fluor = qHTS Assay for Spectroscopic Profiling in A488 Spectral Region; compound autofluorescence, A488 spectral region, dye equivalency; stronger effect = higher value; max dye equivalency, M; 59,000 tested, 0.1% active; active = above 10 nM dye equivalent; inconclusive = 1 to 10 nM; inactive = 1 nM or less; about half of its hits are not listed in these tables;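 further: highest value over a series up to 38 µM; compound alone in buffer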
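Compound autofluorescence was read in 100 mM Tris pH 8.0 after 15 min at room temperature, ex 480 nm/em 540 nm. Intensities were converted to A488 dye-equivalent concentration using an on-plate six-point A488 standard curve.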
AID923 = qHTS Assay for Allosteric/Competitive Inhibitors of Caspase-1: Spectroscopic Profiling in AFC Spectral Region; compound fluorescence, AFC spectral region (405/520 nm); almost no hit is shown here; Potency, µM (top dose mostly 57.5 µM), for inactives: at the highest dose fluorescence increase, actives largely listed as activators; 75,000 tested, 1.1% active; AID 923, 2007; active means well fitted activation curve with a large enough effect; inconclusive means small, poorly fitted or top-dose-only effect;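 further: potency means the concentration at half of the fitted maximal effect; 0% is about no effect; scaled to a free AFC standard on each plate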
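Titrations up to 57 uM read every 20 sec for 3 min (405/520 nm) with 50 nM caspase 1 and 5 uM Ac-WEHD-AFC, pH 7.5 HEPES buffer. Fluorescence-vs-time intercept gave baseline, scaled against on-plate AFC standard.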
TSHR agonist = qHTS Assay for Agonists of the Thyroid Stimulating Hormone Receptor | Thyrotropin receptor (Homo sapiens), P16473 | HEK293-CNG-TSHR cells (CNG channel as cAMP sensor), membrane potential dye, cAMP | Potency, µM (highest dose often 57.1 µM), for inactives: at the highest dose activation, hits mostly activators | 73,000 tested, 0.48% active | AID 926, 2007; active = well fitted activation curve of enough size with the parental cells flat; inconclusive = any curve in the parental cells; inactive = parental cells flat and receptor cells flat or falling; further: potency means the concentration at half of the fitted maximal effect; % of control where 0% means no effect; weak receptor curves with flat parental cells got no call and are not listed
Target sequence (P16473 whole entry, looked up): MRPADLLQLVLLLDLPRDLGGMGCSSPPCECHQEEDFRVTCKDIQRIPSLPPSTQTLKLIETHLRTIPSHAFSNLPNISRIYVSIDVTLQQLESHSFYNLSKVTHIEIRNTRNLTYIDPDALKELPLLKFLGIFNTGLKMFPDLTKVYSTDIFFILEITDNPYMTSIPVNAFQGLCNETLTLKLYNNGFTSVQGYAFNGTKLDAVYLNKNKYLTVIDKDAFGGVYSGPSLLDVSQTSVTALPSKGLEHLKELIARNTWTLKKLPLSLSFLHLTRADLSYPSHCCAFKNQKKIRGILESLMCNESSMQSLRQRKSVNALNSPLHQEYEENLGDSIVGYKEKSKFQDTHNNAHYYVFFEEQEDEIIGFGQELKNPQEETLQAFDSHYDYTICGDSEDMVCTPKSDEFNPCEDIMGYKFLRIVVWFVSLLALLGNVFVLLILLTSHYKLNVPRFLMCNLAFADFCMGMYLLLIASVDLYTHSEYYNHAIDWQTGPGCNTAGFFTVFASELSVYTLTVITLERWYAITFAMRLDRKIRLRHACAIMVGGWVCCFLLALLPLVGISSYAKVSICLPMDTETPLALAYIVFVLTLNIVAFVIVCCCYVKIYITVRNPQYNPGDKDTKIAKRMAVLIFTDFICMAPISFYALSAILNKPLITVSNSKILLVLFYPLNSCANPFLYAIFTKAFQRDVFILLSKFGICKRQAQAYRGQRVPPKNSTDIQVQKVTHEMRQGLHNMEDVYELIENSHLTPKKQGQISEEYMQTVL
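HEK 293 cells stably expressing TSHR and a modified CNG channel, with CNG-only parental cells as counterscreen, were preloaded 60 min at room temperature with membrane potential dye containing 100 uM RO 20-1724. Compound exposure was 30 min, and depolarization was read as fluorescence at 590 nm.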
A647 autofl = qHTS Assay for Spectroscopic Profiling in A647 Spectral Region; Compound fluorescence, A647 channel (570/671 nm), Tris buffer; max dye-equivalent concentration, M; 59,000 tested, under 10 active; active means above 1 µM dye equivalent; inconclusive means 0.1 to 1 µM; inactive means 0.1 µM or less;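 further: values scaled relative to a standard on each plate; highest value over a series up to 38 µM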
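Compounds pinned into 100 mM Tris pH 8.0, 15 min at room temperature, then read with 570 nm excitation/671 nm emission filters. Fluorescence normalized to an on-plate six-point Alexa 647 standard curve, giving dye-equivalent concentration per compound concentration.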
An asterisk follows results filed as active; i = inactive; ? = inconclusive; / = no result given; & = joins results of further samples; [ ] = another dose, or the depositor's remark. A portion of the library, so the mix of outcomes need not match the whole.

molecule,Resorufin autofl,A488 fluor,AID923,TSHR agonist,A647 autofl
COc1ccc2cc3cc(C(=O)NCC4CCCO4)oc3nc2c1 (stereo not given),i,i,3.5%,0%,1e-09
COc1ccc(NC(=O)N2CC[C@@]3(CCCN(C(=O)c4ccc(OC)cc4)C3)C2)cc1,i,i,3.0%,-1%,2.3e-08
Cc1sc2ncnc(OCC(=O)c3ccc(S(=O)(=O)N4CCCC4)cc3)c2c1C,i,i,-0.3%,2%[11.4 µM],2.5e-08
O=C(NCc1ccco1)[C@@H]1CSC2c3ccccc3C(=O)N21 (stereo not given in full),i,i,0.6%,0%,2.9e-08
Cc1ccc(Cl)cc1N1CCN(C(=O)Cn2ccc3ccccc3c2=O)CC1,i,i,-1.1%,6%[11.4 µM],1e-09
Cc1cccc2cc(CN(Cc3cccs3)Cc3nnnn3Cc3ccccc3)c(=O)[nH]c12,i,i,-1.9%,?,1e-09
COc1ccc(CCNC(=O)CCCCn2c(=O)[nH]c3ccccc3c2=O)cc1OC,i,i,-0.8%,3%,6.3e-09
CCc1c(C)c2c(C)[nH]nc2oc1=O,i,i,1.4%,?,7.4e-09
N#Cc1ccc(CN2CCC3(CC2)CCN(C(=O)c2cc(C(F)(F)F)cc(C(F)(F)F)c2)CC3)cc1,i,i,0.5%,8%,1e-09
CCSc1nc2cc(OC)c(OC)cc2c(=O)n1CC,i,i,0.6%,9%,2.2e-08
CCOC(=O)N1CCC(NC(=O)c2ccc3c(c2)N(CC)CCS3)CC1,/,/,9.2%,3%,/
O=C(Cn1cc2c(n1)CCCCC2)NC1CCN(Cc2ccccc2)CC1,/,/,-1.2%,7%,/
Cc1ccccc1Nc1nnc(SCC(=O)NC(=O)NCc2ccco2)s1,i,i,-0.2%,-6%,3.1e-08
CC(=O)c1cc2c(cc1NS(=O)(=O)c1ccc(C)cc1)OCCO2,i,i,-0.9%,22%,7.4e-09
COc1ccccc1C1C(C(N)=O)=C(C)Nc2nc(-c3ccccc3Cl)nn21 (stereo not given),/,/,-0.1%,2%,/
Cc1cc(=O)oc(C)c1C(=O)N1CCN(C)CC1,i,i,/,/,2e-09
O=C(CSc1nc2ccsc2c(=O)n1NC(=O)c1ccccc1)Nc1nccs1,i,i,-0.1%,-1%,3.1e-08
C[N+](C)(CCCCCC[N+](C)(C)CCCN1C(=O)c2ccccc2C1=O)CCCN1C(=O)c2ccccc2C1=O,/,/,0.2%,8%,/
Cn1cccc1C(=O)OCc1cc(Cl)cc2c1OCOC2,i,i,0.1%,?,1.7e-08
O=C(c1cc(O)c(O)c([N+](=O)[O-])c1)c1ccccc1F,i,i,-1.9%,?,1e-09
CCc1c(C)nc(N)n2c(SCC(=O)Nc3ccccc3OC)nnc12,i,i,0.7%,3%,1e-09
Cc1noc(C)c1C(=O)NCc1ccco1,i,i,2.7%,?,4.2e-08
Cc1cc(NS(=O)(=O)c2ccc(NC(=O)Cc3cccs3)cc2)no1,i,i,0.5%,-1%,1.9e-08
CC(=O)N[C@@H](C(=O)O)C(C)(C)SN=O,i,i,-2.1%&0.7%,4%&8%,9.8e-09
Cn1c(NCCCN2CCOCC2)nc2c1c(=O)n(Cc1ccc(Cl)cc1Cl)c(=O)n2C,i,i,-0.9%,-8%[11.4 µM],1e-09
COc1cc2c(cc1OC)-c1nnc(-c3cccs3)n1C(C)(C)C2,/,/,-1.9%,?,/
COc1cccc(NC(=O)Cn2c(SCC(=O)N3CCOCC3)nc3ccccc32)c1,i,i,-0.7%,?,1.5e-08
O=C(Nc1ccccc1)N1CCC2(CC1)CCN(C(=O)c1cnccn1)CC2,i,i,2.0%,2%,1.2e-08
Cn1c(/C(C#N)=C2/CCCCCN2)nc2ccccc21,i,i,3.3%,13%,2.1e-08
COc1ccc(NC(=O)CSc2nnc(Cn3c(=O)sc4ccccc43)n2C)cc1,/,/,3.3%,-7%,/
CCOCCCNc1nc2c(c(=O)n(C)c(=O)n2C)n1CCCc1ccccc1,i,i,-0.5%,-1%,1.1e-08
O=C(c1ccc(O)cc1)c1ccc(C(=O)O)c(C(=O)O)c1,i,i,-2.6%,4%,6.7e-09
O=C(CN1CCC(O)CC1)N1c2ccccc2C=Cc2ccccc21,i,i,0.1%,10%,3.1e-09
Cc1cccc(CNc2nc(-c3ccccc3CN(C)C)nc3ccccc23)c1,i,i,-0.5%,?,2.7e-08
CC(C)C(=O)Nc1cccc(C(=O)Nc2ccc3c(c2)OCO3)c1,i,i,1.2%,?,3.1e-08
CC(C)(C)NC(=O)Nc1ccccc1C(N)=O,i,i,1.8%,0%,3.5e-09
CCOc1ccc(-n2c(COc3ccc(C)cc3)nnc2SCC(N)=O)cc1,i,i,2.5%,11%,7.9e-09
CC(C)N=c1cc2n(-c3ccc(Cl)cc3)c3ccccc3nc-2cc1Nc1ccc(Cl)cc1,i,i,0.5%[25.7 µM],-20%[25.6 µM],2.1e-09&4.8e-09
O=c1c2c(nc3c(-c4cccc5ccccc45)c[nH]n13)CCC2,i,i,-2.0%,30%,5e-09
Cc1cccc(N2CCN(C(=O)Cc3c(C(=O)O)[nH]c4ccc(Cl)cc34)CC2)c1C,i,i,1.6%,-19%,1e-09

Pulled one by one from the list above (4):
molecule,Resorufin autofl,A488 fluor,AID923,TSHR agonist,A647 autofl
O=C(Cn1cc2c(n1)CCCCC2)NC1CCN(Cc2ccccc2)CC1,/,/,-1.2%,7%,/
CCc1c(C)c2c(C)[nH]nc2oc1=O,i,i,1.4%,?,7.4e-09
N#Cc1ccc(CN2CCC3(CC2)CCN(C(=O)c2cc(C(F)(F)F)cc(C(F)(F)F)c2)CC3)cc1,i,i,0.5%,8%,1e-09
CC(=O)N[C@@H](C(=O)O)C(C)(C)SN=O,i,i,-2.1%&0.7%,4%&8%,9.8e-09

New compounds follow
molecule,Resorufin autofl,A488 fluor,AID923,TSHR agonist,A647 autofl
Cc1nc(CCNC(=O)COc2ccccc2)cs1,/,/,7.5%,-6%,/
CCN1CCN(C(=O)c2cc3nc(-c4ccccc4)cc(C(F)(F)F)n3n2)CC1,i,i,2.4%,3%,2.2e-08
CN(C)CCNc1nc2c(c(=O)n(C)c(=O)n2C)n1C,i,i,0.8%[11.5 µM],5%[11.4 µM],4.4e-08
CCOC(=O)N1CCN(CC(=O)c2c(C)[nH]c3ccccc23)CC1,i,i,-0.9%,10%,3.1e-08
COc1ccc(C)cc1N(CC(=O)Nc1cccc(N(C)S(C)(=O)=O)c1)S(C)(=O)=O,i,i,0.2%,-7%,9.2e-09
O=c1c2ccccc2nnn1CSc1nnc(-c2cccnc2)n1-c1ccccc1F,i,i,-1.8%,/,1.5e-08
O=C1C2CCCN2C(c2ccc(F)cc2)N1c1cccc(Cl)c1 (stereo not given),/,/,3.0%,1%,/
O=c1cc(COn2nnc3ccc(C(F)(F)F)cc32)nc2sccn12,i,i,-0.6%,1%,3.9e-08
CN1CCC(NC(=O)Cc2c(F)cccc2Cl)CC1,i,i,-2.9%,1%,7.8e-09
Cc1ccc(C(N)=S)c(C)c1,i,i,-1.0%,/,1e-09
COc1ccc(C(=O)N2CCN(C3CCC(c4ccccc4)CC3)CC2)cc1OC (stereo not given),i,i,-0.6%,11%,2.4e-09
Cn1cccc1C(=O)N1CCC2(CCCN(Cc3ccccc3)C2)CC1,i,i,-0.5%,?,2.2e-08
O=C(NCc1cccs1)c1cc(-c2cccc(Cl)c2)on1,i,i,0.8%,6%,1.5e-09
O=C(Nc1nnc(-c2ccccc2Cl)o1)c1ccco1,i,i,-2.1%,?,1.4e-08
COc1ccc(CCNC(=O)c2cccnc2)cc1OC,/,/,-0.7%,10%,/
COC(=O)CSc1nnc(SCc2ccccc2)s1,/,/,3.2%,5%,/
CCCCn1c(SCC(=O)NCc2ccco2)nnc1-c1ccoc1C,i,i,1.4%,2%[11.4 µM],5.4e-09
COc1ccccc1CNc1ncnc2ccc(-c3ccccc3C#N)cc12,i,i,0.7%,?,2.8e-09
COc1ccc(NC(=O)CS(=O)CC(=O)Nc2ccc(OC)c(OC)c2)cc1 (stereo not given),i,i,0.5%,-1%,9.3e-09
CCC(Oc1ccccc1)C(=O)Nc1ccc(S(=O)(=O)NCC2CCCO2)cc1 (stereo not given),i,i,1.6%,6%,6.2e-08
CS(=O)(=O)N1CCC2(CC1)CN(Cc1ccccc1)C2,i,i,-1.2%,8%,3.2e-08
COc1cccc(OCC(O)CN2CCOCC2)c1 (stereo not given),i,i,-2.1%,-4%[11.4 µM],1e-09
NC(=O)C1(N2CCCCC2)CCN(C(=O)c2ccc(C#Cc3ccccc3)o2)CC1,i,i,-2.4%,-15%[11.4 µM],1e-09
Cc1sc2nc3n(c(=O)c2c1C)Cc1ccccc1-3,i,i,0.9%,3%,3e-09
O=C(C1Cc2ccccc2O1)N1CCCCC1 (stereo not given),/,/,-3.4%,?,/
COc1ccccc1-c1nc(NCCc2cnc[nH]2)c2ccccc2n1,i,i,1.2%,-9%,2e-09
CCn1c(=O)cc(OCC(=O)NCCCN2CCC(C)CC2)c2ccccc21,i,i,-0.9%,-3%[11.4 µM],2.5e-09
COc1ccc(C(=O)CCC(=O)O)cc1,/,/,-1.0%,9%,/
C=CCC1c2cccc(C(=O)O)c2C(=O)N1c1ccc(F)cc1 (stereo not given),i,i,0.6%,5%,4.9e-09
CCOc1ccc2oc(-c3ccccc3)c(C(=O)N3CCN(C)CC3)c2c1,/,/,1.6%,?,/
CCCCN(CC)CCNc1c(NC2CCN(C(=O)OCC)CC2)c(=O)c1=O,/,/,1.9%,-3%,/
Cc1ccccc1OCC(O)Cn1c(NCc2ccco2)nc2c1c(=O)n(C)c(=O)n2C (stereo not given),i,i,1.7%,-3%,4.5e-08
CCSc1ccccc1C(=O)Nc1nncs1,i,i,-0.4%,1%,3.2e-08
COc1cc(OC)cc(C(=O)Nc2ccc(-c3nc4ccccc4o3)cc2)c1,/,/,0.7%,?,/
CCCOc1c(OC)cccc1C1CC(=O)Nc2cc3c(cc21)OCCO3 (stereo not given),i,i,-2.6%,?,4.7e-08
CCCOc1ccc(OCCSc2ncccn2)cc1,i,i,-2.4%,5%,3.6e-08
COc1ccccc1CNc1cc(-c2ccccc2Cl)ncn1,i,i,3.1%,?,5.1e-09
Cc1occc1C(=O)Nc1nnc(C2CCCCC2)s1,/,/,-0.7%,7%,/
Cc1cc(C(=O)CSc2nnnn2C)c(C)n1-c1cccc(F)c1,i,i,-0.2%,11%,2.6e-09
O=C(COc1ccc(CO)cc1)Nc1ccc(F)cc1,i,i,0.6%,-4%,5e-08
Cc1ccc(-c2cc(C(=O)NCCCN3CCOCC3)no2)cc1,i,i,-0.5%,6%,1e-09
Cc1ccc(-n2nnc3c(=O)n(Cc4cc(C)ccc4C)cnc32)cc1,i,i,-1.8%,?,1e-09
O=C(O)CCCCCN1C(=O)c2ccc(C(=O)O)cc2C1=O,/,/,2.1%,6%,/
C=CCn1c(SCc2cccc(C#N)c2)nnc1-c1ccccc1O,/,/,-0.6%,4%[11.4 µM],/

Source: PubChem (National Center for Advancing Translational Sciences (NCATS))
